nsP2pro inh: inhibitors of chikungunya virus nsP2 protease; Q8JUX6; FRET peptide cleavage, nsP2pro, fluorescence 1 h; Potency, µM (titrated, usually from 24.9 µM), without a hit: at the highest dose activity change, negative = inhibition, usual class: inhibitors; 31,000 compounds, 1.1% hits; active means well fitted inhibition curve with a large enough effect; inconclusive means small, poorly fitted or top-dose-only effect; inactive means no such curve, though single readings can be large or run the other way; further: nearly all actives have a fitted effect of over 60% in size; a reference inhibitor and vehicle were the controls
Target sequence (Q8JUX6 whole entry, looked up): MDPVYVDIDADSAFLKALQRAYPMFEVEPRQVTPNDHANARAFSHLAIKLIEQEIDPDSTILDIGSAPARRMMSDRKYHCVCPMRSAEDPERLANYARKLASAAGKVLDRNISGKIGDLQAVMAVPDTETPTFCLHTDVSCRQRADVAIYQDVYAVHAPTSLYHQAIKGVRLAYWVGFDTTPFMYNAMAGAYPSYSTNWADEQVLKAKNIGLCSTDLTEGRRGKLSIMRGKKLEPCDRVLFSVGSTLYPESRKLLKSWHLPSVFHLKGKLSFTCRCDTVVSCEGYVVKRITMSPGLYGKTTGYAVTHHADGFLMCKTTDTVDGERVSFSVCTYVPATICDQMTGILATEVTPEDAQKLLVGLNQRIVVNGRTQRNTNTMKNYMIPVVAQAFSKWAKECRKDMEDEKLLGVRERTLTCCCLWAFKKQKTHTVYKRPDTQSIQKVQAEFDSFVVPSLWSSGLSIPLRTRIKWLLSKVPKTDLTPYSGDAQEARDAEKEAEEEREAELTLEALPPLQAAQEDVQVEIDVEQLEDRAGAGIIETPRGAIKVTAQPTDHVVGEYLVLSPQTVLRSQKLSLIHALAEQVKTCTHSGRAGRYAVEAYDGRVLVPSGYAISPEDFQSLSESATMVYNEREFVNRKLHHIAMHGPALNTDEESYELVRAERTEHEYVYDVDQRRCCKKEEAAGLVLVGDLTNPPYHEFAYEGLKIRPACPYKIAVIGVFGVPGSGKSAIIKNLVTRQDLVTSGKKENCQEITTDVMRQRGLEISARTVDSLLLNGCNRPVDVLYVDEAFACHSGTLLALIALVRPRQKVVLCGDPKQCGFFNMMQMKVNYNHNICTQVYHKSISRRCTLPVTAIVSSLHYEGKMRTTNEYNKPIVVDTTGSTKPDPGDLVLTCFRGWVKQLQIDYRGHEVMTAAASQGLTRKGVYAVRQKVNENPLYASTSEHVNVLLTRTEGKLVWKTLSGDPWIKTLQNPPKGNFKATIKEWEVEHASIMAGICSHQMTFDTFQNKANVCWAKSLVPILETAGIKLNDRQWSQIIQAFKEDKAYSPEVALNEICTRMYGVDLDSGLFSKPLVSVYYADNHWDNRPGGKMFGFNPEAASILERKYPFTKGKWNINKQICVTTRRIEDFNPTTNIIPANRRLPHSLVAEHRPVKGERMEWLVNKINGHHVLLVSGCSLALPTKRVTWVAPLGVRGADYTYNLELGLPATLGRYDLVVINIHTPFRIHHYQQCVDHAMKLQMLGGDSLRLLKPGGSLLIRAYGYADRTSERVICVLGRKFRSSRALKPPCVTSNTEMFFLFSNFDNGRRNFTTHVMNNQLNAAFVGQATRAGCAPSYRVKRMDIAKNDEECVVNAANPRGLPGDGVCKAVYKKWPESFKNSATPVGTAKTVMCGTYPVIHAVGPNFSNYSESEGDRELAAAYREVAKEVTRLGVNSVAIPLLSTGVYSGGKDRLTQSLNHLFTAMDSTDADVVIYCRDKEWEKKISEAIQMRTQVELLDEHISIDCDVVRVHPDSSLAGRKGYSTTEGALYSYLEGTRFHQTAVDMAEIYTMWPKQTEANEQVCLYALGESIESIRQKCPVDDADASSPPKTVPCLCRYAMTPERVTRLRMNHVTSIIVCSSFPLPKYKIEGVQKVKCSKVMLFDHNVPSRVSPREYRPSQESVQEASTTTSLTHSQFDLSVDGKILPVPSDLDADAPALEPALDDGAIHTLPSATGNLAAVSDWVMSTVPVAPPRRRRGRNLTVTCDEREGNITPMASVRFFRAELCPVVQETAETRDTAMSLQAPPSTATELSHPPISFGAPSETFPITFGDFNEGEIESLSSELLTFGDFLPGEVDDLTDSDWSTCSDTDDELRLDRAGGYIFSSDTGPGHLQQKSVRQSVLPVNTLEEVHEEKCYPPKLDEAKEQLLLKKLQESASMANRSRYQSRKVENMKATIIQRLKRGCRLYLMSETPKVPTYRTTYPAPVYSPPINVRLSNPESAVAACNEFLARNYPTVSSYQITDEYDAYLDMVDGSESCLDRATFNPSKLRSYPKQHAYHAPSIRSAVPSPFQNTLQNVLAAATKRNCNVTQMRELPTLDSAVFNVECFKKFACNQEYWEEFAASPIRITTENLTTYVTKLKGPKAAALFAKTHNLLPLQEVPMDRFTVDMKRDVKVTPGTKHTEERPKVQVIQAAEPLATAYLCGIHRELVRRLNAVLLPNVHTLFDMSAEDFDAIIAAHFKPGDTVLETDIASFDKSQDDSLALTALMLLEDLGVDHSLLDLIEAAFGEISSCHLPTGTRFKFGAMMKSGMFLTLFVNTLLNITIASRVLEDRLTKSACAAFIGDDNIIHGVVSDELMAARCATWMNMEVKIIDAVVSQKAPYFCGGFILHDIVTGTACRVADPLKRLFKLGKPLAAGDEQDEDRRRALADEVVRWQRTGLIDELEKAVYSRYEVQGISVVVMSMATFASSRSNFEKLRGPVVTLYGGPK
* = called active by the depositor; & = joins results of further samples; [ ] = dose if it differs, or a comment. On the % scale 0 is the no-effect control and ±100 the full control effect; potency means the concentration at half of the fitted maximal effect. An excerpt, so the mix of outcomes need not match the whole.

The first 3 records, to show the layout:
What do the screens show for `CCCCOC(=O)NS(=O)(=O)c1sc(CC(C)C)cc1-c1ccc(Cn2ccnc2)cc1`?
nsP2pro inh: 256%[activator]

How did O=C(CCc1ccccc1)N1CCc2c([nH]c3ccccc23)C1c1ccc(F)cc1 (configuration not stated) do in these assays?
nsP2pro inh: -13%

How did CCOc1ccccc1N1CCN(S(=O)(=O)c2ccc(C3CCCCC3)cc2)CC1 do in these assays?
nsP2pro inh: -18%

Results, repeating the preview:
What do the screens show for `CCCCOC(=O)NS(=O)(=O)c1sc(CC(C)C)cc1-c1ccc(Cn2ccnc2)cc1`?
nsP2pro inh: 256%[activator]

How did O=C(CCc1ccccc1)N1CCc2c([nH]c3ccccc23)C1c1ccc(F)cc1 (configuration not stated) do in these assays?
nsP2pro inh: -13%

How did CCOc1ccccc1N1CCN(S(=O)(=O)c2ccc(C3CCCCC3)cc2)CC1 do in these assays?
nsP2pro inh: -18%

Results for O=C(NC1CC(=O)N(c2ccc3c(c2)OCCO3)C1)c1c(F)cccc1Cl (configuration not stated) ?
nsP2pro inh: -5%

What do the screens show for `COc1cc2ncnc(Nc3cccc(I)c3)c2cc1OC`?
nsP2pro inh: 55%[activator]

What do the screens show for `FC1(F)CN[C@H](c2nnc(C3CC3)o2)C1`?
nsP2pro inh: -14%

What do the screens show for `CC(=O)N1c2ccc(S(=O)(=O)N(C)CC(=O)N(Cc3ccccc3)C(C)C)cc2CC1C` (configuration not stated)?
nsP2pro inh: -15%

How did COc1ccccc1N1CCN(C(=O)c2ccc(CS(=O)c3ccccc3C)o2)CC1 (configuration not stated) do in these assays?
nsP2pro inh: -25%

Results for COC(=O)[C@H](NC(=O)[C@@H]1[C@@H](NC(=O)Nc2cccc(OC)c2)CCN1C(=O)c1cnccn1)C(C)C ?
nsP2pro inh: -1%

Results for Cc1cccc(N2CCN(C(=S)Nc3cc(C)ccn3)CC2)c1 ?
nsP2pro inh: 4%

Results for CCC1=C[C@@H]2CN(C1)Cc1c([nH]c3ccccc13)[C@@](C(=O)OC)(c1cc3c(cc1OC)N(C)[C@H]1[C@@](O)(C(=O)OC)[C@H](OC(C)=O)[C@]4(CC)C=CCN5CC[C@]31[C@@H]54)C2 ?
nsP2pro inh: 21%

What do the screens show for `CC1CCN(S(=O)(=O)c2cn(CC(=O)Nc3ccc(F)c(Cl)c3)c(=O)c3ccccc23)CC1`?
nsP2pro inh: -20%

Results for O=C1CC(=O)Nc2cc(S(=O)(=O)N3CCOc4ccccc43)ccc2N1 ?
nsP2pro inh: -16%

Results for Cc1cc(-c2nnc3n2CCC3)c(C)n1-c1ccccc1 ?
nsP2pro inh: inconclusive

What do the screens show for `Cc1cc(CS(=O)(=O)c2ccccc2)cc(OCc2ccc(CN3CCC[C@@H]3CO)cc2)c1`?
nsP2pro inh: 60%[activator]

Results for CC(C)CCN1CC(Oc2ccc(F)cc2F)C1 ?
nsP2pro inh: -15%[39.2 µM]

What do the screens show for `COc1ccc(C(=O)Nc2nc3c(s2)Cc2cc(OC)ccc2-3)cc1`?
nsP2pro inh: inconclusive

What do the screens show for `CCCC(=O)OCOC(=O)C1=C(C)NC(C)=C(C(=O)OC)C1c1cccc(Cl)c1Cl` (configuration not stated)?
nsP2pro inh: 20%

What do the screens show for `Cc1cc(Nc2ncc3cc(-c4c(Cl)cccc4Cl)c(=O)n(C)c3n2)ccc1F`?
nsP2pro inh: 28%

What do the screens show for `CN(C)S(=O)(=O)N(CC(=O)NCCSCc1ccccc1Cl)c1ccccc1`?
nsP2pro inh: -16%

How did COc1ccc(C2=Nn3c(nnc3-c3ccccc3OC)SC2)cc1 do in these assays?
nsP2pro inh: inactive

What do the screens show for `COc1ccc(NS(=O)(=O)c2ccc3c(c2)CCCN3C(=O)C2CCC2)cc1OC`?
nsP2pro inh: -4%

What do the screens show for `CC(C)[C@@H]1C[C@@H]2C[C@@H](Nc3ccccn3)C[C@]2(c2ccccc2)CO1`?
nsP2pro inh: -1%

What do the screens show for `O=C(O)c1cccc2c1C(=O)N(c1ccccc1)C2`?
nsP2pro inh: 3%

Results for Cc1ccc(Cl)cc1N1CCN(C(=O)c2cc(S(=O)(=O)N3CCCCCC3)cn2C)CC1 ?
nsP2pro inh: -5%

Results for CC(C)=C/C(C)=N\Nc1nncc2ccccc12 ?
nsP2pro inh: -3%

How did O=C(c1ccccn1)N1CC(CO)C2(CCNCC2)C1 (configuration not stated) do in these assays?
nsP2pro inh: inactive

What do the screens show for `CCCN1CCCC2(CCN(C(=O)c3ccc4nc(C)sc4c3)C2)C1=O` (configuration not stated)?
nsP2pro inh: inactive

How did Cc1ccc(C)c(C(=O)CSc2nc(-c3ccccc3)nc3c2CCCC3)c1 do in these assays?
nsP2pro inh: -13%

Results for COc1ccc(-c2cnc(Nc3ccc(CN4CCN(C)CC4)cc3)c3c2CCO3)cn1 ?
nsP2pro inh: inactive

Results for COc1ccc(-n2nc3c(c2NC(=O)C(=O)NCc2ccccc2)CSC3)cc1 ?
nsP2pro inh: 21%

How did Cc1cccc(CNC(=O)c2cc3cc(S(=O)(=O)N4CCCCC4)ccc3n2C)c1 do in these assays?
nsP2pro inh: -20%

What do the screens show for `Cn1cnc2c(F)c(Nc3ccc(Br)cc3Cl)c(C(=O)NOCCO)cc21`?
nsP2pro inh: -5%&-13%&13%

How did COc1ccc(S(=O)(=O)NCCc2sc(-c3cccc(F)c3)nc2C)cc1 do in these assays?
nsP2pro inh: 0%

How did COC(=O)CCCCC(CCSS/C(CCO)=C(\C)N(C=O)Cc1cnc(C)nc1N)SC(C)=O (configuration not stated) do in these assays?
nsP2pro inh: 8%

Results for CCc1cccc(NC(=O)c2cc(-c3ccccc3)n[nH]2)c1 ?
nsP2pro inh: -18%

What do the screens show for `COc1cc2ccccc2cc1C(=O)N1CCN(c2nc3c(F)cccc3s2)CC1`?
nsP2pro inh: -16%

How did O=C(NCCCc1cnc[nH]1)NCCCN(Cc1ccc(Cl)c(Cl)c1)c1ccc(Br)cn1 do in these assays?
nsP2pro inh: inactive

How did Nc1ccc2nc(-c3ccc(O)cc3)sc2c1 do in these assays?
nsP2pro inh: 5%

What do the screens show for `COc1ccc(S(=O)(=O)N2CCC(n3c(C(F)(F)F)nc4cccnc43)CC2)cc1OC`?
nsP2pro inh: -17%

What do the screens show for `CO[C@H]1c2cc(C(C)C)c(O)c(O)c2[C@@]23CCCC(C)(C)C2[C@@H]1OC3=O` (some centres not stated)?
nsP2pro inh: 6.1µM*

How did COC1CC/C=C(\C)C(=O)Nc2cc(O)cc(c2)CC(C)CC(OC)C(O)C(C)/C=C(\C)C1OC(N)=O (configuration not stated) do in these assays?
nsP2pro inh: inconclusive

Results for CC(C)(C)OC(=O)N1CCN(c2ccc(NCc3ccc(-c4ccc(C#N)cc4)o3)cn2)CC1 ?
nsP2pro inh: 2%

Results for CC(C)[C@H]1OC(=O)[C@H](Cc2ccccc2)N(C)C(=O)[C@@H](C(C)C)OC(=O)[C@H](Cc2ccccc2)N(C)C(=O)[C@@H](C(C)C)OC(=O)[C@H](Cc2ccccc2)N(C)C1=O ?
nsP2pro inh: 25%[10 µM]

What do the screens show for `COc1ccc(C(=O)N2CC(CO)C3(CCNCC3)C2)cc1` (configuration not stated)?
nsP2pro inh: -4%

How did COc1ccc(C(=O)Nc2ccccc2-c2nc3ccccc3s2)c(OC)c1 do in these assays?
nsP2pro inh: 4%

Results for CC(C)c1ccc(OCC(=O)Nc2c(Cl)ccc3nsnc23)cc1 ?
nsP2pro inh: -21%

How did COCCN(CCOC)c1nc(C)nc2c1nc(-c1ccccc1)n2CCCN(C)C do in these assays?
nsP2pro inh: inconclusive

An excerpt from above in order of number of heavy atoms, low to high.
How did Nc1ccc2nc(-c3ccc(O)cc3)sc2c1 do in these assays?
nsP2pro inh: 5%

What do the screens show for `COc1ccc(C(=O)N2CC(CO)C3(CCNCC3)C2)cc1` (configuration not stated)?
nsP2pro inh: -4%

What do the screens show for `CO[C@H]1c2cc(C(C)C)c(O)c(O)c2[C@@]23CCCC(C)(C)C2[C@@H]1OC3=O` (some centres not stated)?
nsP2pro inh: 6.1µM*

How did COc1ccc(C(=O)Nc2ccccc2-c2nc3ccccc3s2)c(OC)c1 do in these assays?
nsP2pro inh: 4%

Results for CC(C)(C)OC(=O)N1CCN(c2ccc(NCc3ccc(-c4ccc(C#N)cc4)o3)cn2)CC1 ?
nsP2pro inh: 2%

Other results:
Results for Cn1nnnc1Sc1ncnc2scc(-c3cccs3)c12 ?
nsP2pro inh: inconclusive

Results for CN1CCC2=C(C1)C(c1ccccc1)c1ccccc12 (configuration not stated) ?
nsP2pro inh: -7%

How did COc1cc(C2CC(=O)N(Cc3cccc(F)c3)c3ccccc3S2)cc(OC)c1OC (configuration not stated) do in these assays?
nsP2pro inh: -11%

What do the screens show for `Cc1ccccc1[C@H]1C[C@@H](O)[C@@H](O)[C@@H]1NC(=O)c1c(-c2ccccc2)noc1C`?
nsP2pro inh: 1%[39.2 µM]

Results for COc1cccc(CNC(=O)c2cccc(-n3c(C)nc4cccnc43)c2)c1OC ?
nsP2pro inh: -5%

What do the screens show for `O=C1CCc2c(ccc3ccccc23)O1`?
nsP2pro inh: inconclusive

How did O=C(NCC1CCN(Cc2ccccn2)C1)Nc1ccc(F)cc1 (configuration not stated) do in these assays?
nsP2pro inh: inactive

Results for CC(C)CCC(=O)CC1c2ccccc2C(=O)N1c1ccc2ccc(Cl)nc2n1 (configuration not stated) ?
nsP2pro inh: -13%

What do the screens show for `COC(=O)c1ccc(NC(=O)CC2C(=O)N(c3ccccc3)C(=O)N2Cc2cccs2)cc1` (configuration not stated)?
nsP2pro inh: -7%

How did NC1Nc2ccccc2C1(N)CC1NC(=O)C(Cc2ccccc2)NC(=O)C(Cc2ccccc2)NC1=O (configuration not stated) do in these assays?
nsP2pro inh: 9%[10 µM]

How did CCOC(=O)C1CCN(S(=O)(=O)c2ccc3c(c2)N(C)C(=O)CC(=O)N3C)CC1 do in these assays?
nsP2pro inh: -17%

How did CCn1c(SCc2cccc(Br)c2)nnc1-c1nonc1NC(C)=O do in these assays?
nsP2pro inh: -13%

Results for CC(=O)N1CCC2(CCN(C(=O)c3ccc(Cl)cc3)CC2)Oc2ccccc21 ?
nsP2pro inh: 3%

What do the screens show for `Cc1ccc(NC(=O)CN(CCc2ccccc2)S(=O)(=O)c2ccccc2)c(C)c1`?
nsP2pro inh: -19%

How did NNC(=O)c1nn(Cc2ccc(Cl)cc2Cl)c2ccccc12 do in these assays?
nsP2pro inh: 114%[activator]

Results for CCN(Cc1ccccc1)C(=O)c1cc2c(=O)[nH]c3ccc(C)cc3c2s1 ?
nsP2pro inh: -16%

Results for COCCCNC(=O)c1cnc2n[nH]c(-c3ccccc3)c2n1 ?
nsP2pro inh: 1%[39.2 µM]

Results for Cc1noc(C)c1-c1cnc(Nc2ccc(F)c(Cl)c2)c2c1CCO2 ?
nsP2pro inh: -14%[39.2 µM]

How did Cc1cc(C)nc(NC(=S)N2CCN(c3ccc(Cl)cc3[N+](=O)[O-])CC2)c1 do in these assays?
nsP2pro inh: -5%

What do the screens show for `Brc1ccc(-c2csc(N3CCC(c4nn[nH]n4)CC3)n2)cc1`?
nsP2pro inh: inactive

Results for CC1=CC(=O)CC2C1(O)CCC(C)C21CC(c2ccoc2)OC1=O (configuration not stated) ?
nsP2pro inh: 33%[activator]

How did Cc1ccc2c(c1)nc(SCC(O)c1ccc(Br)cc1)n2C (configuration not stated) do in these assays?
nsP2pro inh: -13%

Results for COC(=O)C(CC1(O)c2ccccc2N2C(=O)C(CC(C)C)NC21)n1cnc2ccccc2c1=O (configuration not stated) ?
nsP2pro inh: -6%[10 µM]

Results for CC1(C)CC[C@]2(C(=O)O[C@@H]3O[C@H](CO)[C@@H](O)[C@H](O)[C@H]3O)CC[C@]3(C)C(=CCC4[C@@]5(C)CC[C@H](O[C@@H]6O[C@H](C(=O)O)[C@@H](O)[C@H](O)[C@H]6OC6OC(CO)C(O)C(O)C6O)C(C)(C)C5CC[C@]43C)[C@@H]2C1 (some centres not stated) ?
nsP2pro inh: 14%[5.1 µM]

What do the screens show for `Cc1nc(CC(=O)NCc2cccnc2N2CCOCC2)cs1`?
nsP2pro inh: -4%

Results for O=C(Cn1ncc2c(Cl)cccc21)NCc1cccc(F)c1 ?
nsP2pro inh: -3%

How did C=C1CC[C@@H]2[C@@](C)(CO[C@@H]3O[C@H](CO)[C@@H](O)[C@H](O)[C@H]3O)[C@H](O)CC[C@@]2(C)[C@@H]1CC/C(C)=C/CO[C@@H]1O[C@H](CO)[C@@H](O)[C@H](O)[C@H]1O do in these assays?
nsP2pro inh: 50%[activator][10 µM]

How did N#Cc1ccc(OCC2CN(Cc3cccc(C(F)(F)F)c3)C(=O)c3c(ccnc3-c3ccc(OCC(=O)O)cc3)O2)cc1 (configuration not stated) do in these assays?
nsP2pro inh: -6%

Results for C/C(=C\C(=O)C[C@@]12C(=O)O[C@]3(C)CC[C@H]1C[C@H]23)C(N)=O ?
nsP2pro inh: 1%

How did Cc1cccnc1C(=O)N[C@@H]1CN(S(C)(=O)=O)C[C@H]1CN(C)C do in these assays?
nsP2pro inh: 3%

How did CN1C(=O)c2cccc3c(S(=O)(=O)Nc4cccc(C(=O)O)c4)ccc1c23 do in these assays?
nsP2pro inh: -8%

How did Cc1cncc(C(=O)N2CC(CO)C3(CCNCC3)C2)c1 (configuration not stated) do in these assays?
nsP2pro inh: 2%

What do the screens show for `O=S(=O)(NCC1CN(S(=O)(=O)c2ccc3c(c2)OCCO3)C1)c1c(F)cccc1F`?
nsP2pro inh: 4%

What do the screens show for `O=C(O)c1ccc(NCc2nc3ccccc3n2CCOc2ccccc2Cl)cc1`?
nsP2pro inh: 11%

What do the screens show for `COc1c2c(c(CO)c3c1C(=O)OC3)OC1(C)CCC3(O)C(C)(C)OC(=O)CCC3(C)C1C2` (configuration not stated)?
nsP2pro inh: inconclusive

How did Cc1ccc(CS(=O)(=O)NC2CCc3n[nH]c(=O)n3CC2)cc1C (configuration not stated) do in these assays?
nsP2pro inh: -5%

How did O=C(O)c1ccc(O)c2ncc(-c3ccc(N4CCOCC4)cc3)cc12 do in these assays?
nsP2pro inh: inactive

Assay outcomes deposited in PubChem by National Center for Advancing Translational Sciences (NCATS).
